Source: PubChem BioAssay (several laboratories)
YopH inh: inhibitors of Yersinia enterocolitica YopH tyrosine phosphatase | actives 0.16% (n = 140,000) | inhibition, %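 (about 10 µM by stock and volumes)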 | fluorescence Ex485/Em525 | AID 898;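 active = inhibition of 50% or more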;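 note: controls were vehicle for no effect and minimum signal wells for full effect; inactives centre near -20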
Mtb growth: M. tuberculosis H37Rv growth inhibitors, H37Rv strain (AID 1626) | M. tuberculosis H37Rv growth inhibition; higher % means a stronger effect | inhibition, % at 10 µM, or IC50 in µM where a hit was titrated | actives 0.95% (n = 220,000);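 active = confirmed in a dose series; inconclusive = inhibition above 80% but not taken into the dose series; inactive = below 80% or under 30% at every dose of the series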;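 note: bacteria incubated seven days before Alamar blue readout; 0% = bacteria only wells and 100% = bacteria with antibiotic wells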
RecA intein inh: Mtb RecA intein splicing inhibition. P9WHJ3. cell-free RecA intein splicing, fluorescence. inhibition, %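 (about 9 µM by stock and volumes)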. actives 0.75% (n = 290,000); in the data active = inhibition above about 30%; inconclusive = no clear call, values can overlap the other calls;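 note: 0% = vehicle wells and 100% = reference inhibitor control wells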
Target sequence (P9WHJ3 whole entry, looked up): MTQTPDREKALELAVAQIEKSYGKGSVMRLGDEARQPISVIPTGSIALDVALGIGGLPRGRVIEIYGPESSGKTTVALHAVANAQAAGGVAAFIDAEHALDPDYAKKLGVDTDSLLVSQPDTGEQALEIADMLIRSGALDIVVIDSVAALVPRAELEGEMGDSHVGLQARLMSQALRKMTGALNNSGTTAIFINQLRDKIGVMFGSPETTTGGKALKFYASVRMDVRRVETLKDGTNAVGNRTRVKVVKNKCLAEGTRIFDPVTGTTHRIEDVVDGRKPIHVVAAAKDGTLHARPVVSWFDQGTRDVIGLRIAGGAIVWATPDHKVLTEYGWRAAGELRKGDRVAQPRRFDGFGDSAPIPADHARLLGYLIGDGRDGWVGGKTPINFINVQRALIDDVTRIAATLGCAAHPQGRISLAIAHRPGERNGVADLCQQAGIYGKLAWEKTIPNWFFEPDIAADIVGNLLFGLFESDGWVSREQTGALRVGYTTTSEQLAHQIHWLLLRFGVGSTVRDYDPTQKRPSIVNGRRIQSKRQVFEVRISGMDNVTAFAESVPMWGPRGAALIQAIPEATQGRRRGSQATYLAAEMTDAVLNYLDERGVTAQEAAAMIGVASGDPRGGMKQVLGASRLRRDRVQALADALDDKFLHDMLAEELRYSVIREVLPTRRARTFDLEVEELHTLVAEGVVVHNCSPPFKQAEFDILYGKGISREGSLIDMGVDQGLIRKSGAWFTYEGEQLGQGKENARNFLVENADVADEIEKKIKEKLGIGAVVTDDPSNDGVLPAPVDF
Mtb bLac sens: beta-lactam sensitization of Mtb H37Rv; M. tuberculosis H37Rv growth with meropenem, percent inhibition; hits of this screen are not shown here; inhibition, % at 25 µM; actives 0.27% (n = 330,000); AID 434955;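 active = about 74% or more and at least 40 points above the plate without the antibiotic, then above 30% in a dose series; inconclusive = first-round hits that could not be retested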;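 note: growth measured after seven days incubation then overnight dye step; 0% = bacteria only wells and 100% = bacteria with antibiotic; twin plates without the antibiotic show which effects depend on it; some results filed as inactive read as strong as hits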
Arbovirus anti: antivirals against arbovirus infection; actives 0.37% (n = 200,000); inhibition, % at 10 µM; arbovirus infection cell-based antiviral screen;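 active = inhibition from about 30%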;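 note: bluetongue infection of BSR cells; cell survival read as ATP light after 72 h; 0% = infected wells without compound and 100% = uninfected wells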
Arbovirus anti repeat: recorded beside Arbovirus anti, whose call it bears; inhibition, %; measured here: 10K subset replicate screen; many hits read low in the repeat;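 first of two repeat runs on a subset; 0% = infected and 100% = uninfected wells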
Numbers without * were called inactive; ? = inconclusive; nt = not tested or not shown; & = joins results of further samples. These rows are one share of the data. The share of hits here may be higher or lower than overall.

SMILES	YopH inh	Mtb growth	RecA intein inh	Mtb bLac sens	Arbovirus anti	others
CCNC(=S)N/N=C(\C)c1cccc(OC)c1	nt	0%	nt	90	-4
CCn1cnc2cc(NCc3ccc(C)cc3)ccc21	2	2%	3.2	8	6
CCCCc1nc2sc3c(c2c(=O)[nH]1)CCC3	-20	4%	-0.4	-7	-10
C=CCc1ccc(OCC(O)CN2CCCCC2)c(OC)c1 (stereo not given)	-36	-7%	5.6	1	-1
COc1ccc(OC)c(N2C(=NC(=O)C3CCCCC3)SC3CS(=O)(=O)CC32)c1 (stereo not given)	nt	nt	2.3	2	nt
CN(Cc1cnn(-c2ccccc2)c1)C(=O)C1CCC(=O)N(C2CC2)C1 (stereo not given)	nt	nt	-1.0	0	nt
CCOC(=O)C1CN(S(=O)(=O)c2ccc(F)cc2)C1	-8	-9%	-0.8	-1	7
CCC(=O)NC(c1ccco1)c1cc(Cl)c2cccnc2c1O (stereo not given)	nt	-3%	0.3	-4	-31
C[C@H](NC(=O)N1CCn2c1nc1ccccc12)C(=O)NCC1CCCO1 (stereo not given in full)	nt	nt	-1.9	-4	nt
O=C(CCCSc1nnc(-c2cccs2)n1CC1CCCO1)c1ccccc1 (stereo not given)	-23	1%	1.9	-4	-1
CC(=O)c1cc(-c2ccccc2)n(CC(=O)Nc2cccc(C)c2)c1C	-13	-5%	-0.4	6	-1
COc1ccccc1NC(=O)C1=C(C)NC(=O)NC1c1cccs1 (stereo not given)	nt	-13%	-4.7	2	5
COCCCn1cc(C(=O)c2ccccc2OCC(=O)Nc2cccc(F)c2)cc(C#N)c1=O	nt	-5%	10	-10	3
O=[N+]([O-])c1cccc(C(=Nc2ccc(Cl)cc2)NO)c1	-14	4%	13	8	11
Cc1ccccc1S(=O)Cc1ccc(C(=O)NC2CC2)o1 (stereo not given)	nt	nt	-2.2	-6	nt
O=C1CN(C(=O)CSc2nncs2)c2ccccc2N1	nt	5%	8.3	0	0
CN(c1ccc(OCC(=O)OCC(=O)Nc2ccccc2)cc1)S(=O)(=O)c1cccs1	-24	-4%	0.7	-3	1
Cc1ccc(O)c(/C=N/NC(=O)C2=NNC(c3ccccc3)(c3ccccc3)C2)c1	-35	-2%	nt	nt	-31
CSC1=C(C#N)C2(CCCC2)C(C#N)=C(N)N1	-34	0%	0.9	-4	nt
CCn1c(C(=O)N2CCCC(C(=O)O)C2)cc2sccc21 (stereo not given)	-18	-1%	-1.3	-10	4
CCOc1ccc2[nH]c(=O)c(CN(CC3COCCO3)C(=O)c3ccc(C)cc3)cc2c1 (stereo not given)	nt	-15%	3.3	-4	-3
O=C(NCc1ccc(-c2nc3ccccc3s2)cc1)c1ccco1	-15	4%	-0.8	1	0
Cc1ccc(C)c(OCCC(=O)OCC(=O)NCCc2ccc(S(N)(=O)=O)cc2)c1	nt	nt	3.9	-14	nt
COC(=O)COc1ccc2c(c1)O/C(=C\c1cccc([N+](=O)[O-])c1)C2=O	nt	nt	1.0	99	nt
O=C(Nc1ccc(Sc2ccc(Br)cc2)cc1)c1ccco1	5	4%	nt	24	15
Cc1cccc(NC(=O)CS(=O)(=O)c2c[nH]c3ccccc23)c1C	-24	-8%	-9.1	?	1
Clc1ccc(-c2nnc(-c3ccco3)o2)cc1	-28	10%	-2.4	1	2
N#Cc1ccc(OCC(=O)Nc2ccncc2)cc1	nt	nt	-0.3	-7	nt
CCOC(=O)c1n[nH]n2c1nc(=O)c1ccccc12	nt	nt	-1.0	0	nt
N#Cc1ccc(-c2ccc(F)cc2)nc1Oc1ccccc1	-35	3%	-0.6	10	-10
COc1ccc(OC)c(-n2c(-c3ccc(S(C)(=O)=O)cc3)cc(C=O)c2C)c1	-20	-4%	0.4	-6	0
COCCNC(=S)NCc1cccs1	nt	3%	2.6	0	3
O=C(NCc1ccccn1)c1cccc(NS(=O)(=O)c2ccccc2F)c1	-18	0%	-0.5	-7	8
COc1ccc(OCCCC(=O)NCC(C)C)cc1	-2	5%	0.8	3	-2
COc1ccc(C(=O)NCc2oc(-c3ccccc3)cc2C(=O)O)cc1	-27	7%	-0.4	-13	2
COc1ccc(CCNC(=O)C2CCCN(S(=O)(=O)c3cnc[nH]3)C2)cc1OC (stereo not given)	-9	0%	nt	2	5

A draw from above in order of length of the SMILES, low to high:
SMILES	YopH inh	Mtb growth	RecA intein inh	Mtb bLac sens	Arbovirus anti	others
N#Cc1ccc(OCC(=O)Nc2ccncc2)cc1	nt	nt	-0.3	-7	nt
Clc1ccc(-c2nnc(-c3ccco3)o2)cc1	-28	10%	-2.4	1	2
COc1ccc(C(=O)NCc2oc(-c3ccccc3)cc2C(=O)O)cc1	-27	7%	-0.4	-13	2
COc1ccc(CCNC(=O)C2CCCN(S(=O)(=O)c3cnc[nH]3)C2)cc1OC (stereo not given)	-9	0%	nt	2	5

Remaining list, next part
SMILES	YopH inh	Mtb growth	RecA intein inh	Mtb bLac sens	Arbovirus anti	others
CC1CCN(C(=O)CCN2C(=O)C3C4C=CC(C4)C3C2=O)CC1 (stereo not given)	nt	nt	-3.0	3	nt
COc1ccc2nccc(C(N)=O)c2c1	nt	-14%	-2.5	-5	nt
CC1CCc2cc(F)ccc2N1C(=O)CCC(=O)O (stereo not given)	-33	-2%	-2.3	1	10
CCOC(=O)c1sc(NC(=S)NC(=O)C2CC2)cc1C	-18	2%	-1.8	-2	-10
COc1ccccc1NC(=S)NCc1ccccn1	-19	1%	1.1	6	-12
Cc1ccc(NC(=O)COC(=O)c2cccc3c2C(=O)c2ccccc2C3=O)c(C)c1	-29	-1%	-7.5	2	-17
NC(=O)COC(=O)c1cc(S(=O)(=O)N2CCN(c3ccccc3)CC2)ccc1Cl	nt	-1%	4.8	-9	9
CCCSc1nc2c(c(=O)[nH]c(=O)n2C)n1CCc1ccccc1	-25	5%	-2.0	1	-4
O=C(COC(=O)C1CCN(S(=O)(=O)c2ccc(Cl)c(C(F)(F)F)c2)CC1)NCc1ccco1	nt	nt	-2.2	-1	nt
COc1ccc(-c2noc(CSc3nc(-c4ccccc4)cc(=O)[nH]3)n2)cc1OC	-28	-5%	0.8	-1	52*
COc1cc(/C=c2\sc3n(c2=O)C(c2ccccc2)C(c2ccccc2)=NN=3)ccc1O (stereo not given)	-31	?	nt	100	-7
Cc1ccc(NC(=O)NNC(=O)c2snnc2C)cc1	nt	5%	5.6	0	6
Fc1ccc(Nc2nnc(C(F)(F)F)s2)cc1Cl	nt	2%	0.6	6	nt
O=C(/C=C/c1ccc(OC(F)F)cc1)Nc1cccc(S(=O)(=O)NC2=NCCCCC2)c1	nt	nt	6.3	-2	nt
O=C(O)CC1(CC(=O)Nc2ccc(C(F)(F)F)cc2)CCCC1	nt	nt	-0.9	0	nt
C#CCOCCOCCOCCNc1nc(N2CCN(C(=O)[C@H](CCC(=O)O)n3cc(C(N)Cc4ccc(O)cc4)nn3)CC2)nc(N2CCN(C(=O)[C@H](CCC(=O)O)n3cc(C(N)CC(C)C)nn3)CC2)n1 (stereo not given in full)	nt	14%	0.2	-3	1
Cc1ccc(-c2noc(=O)n2CC(=O)c2ccc(Cl)cc2)cc1	nt	34%	2.6	94	9
CCN(CC)c1ccc(/C=N/Nc2ccc(C)cc2)c(O)c1	83*	?	nt	-6	-39
O=C(CCn1c(=O)[nH]c2ccccc2c1=O)N1CCN(c2ccc(Cl)cc2)CC1	-20	0%	0.2	3	-4
C1=NCCc2c1[nH]c1ccccc21	nt	nt	-2.5	0	nt
CC(C)(C)CC(=O)Nc1cccc2c1CCCC2	-4	-14%	0.0	-5	0
CC(C)c1cc(C(=O)N/N=C/c2c[nH]c3ccccc23)n[nH]1	nt	-1%	0.8	-11	nt
CCCOc1ccc(CN(CCO)CCO)cc1C(=O)OC	-8	-4%	4.6	-9	15
COC(=O)NCc1ccc(CNC(=O)OC)cc1	-45	0%	0.3	-6	8

3 successive records from above, quoted:
SMILES	YopH inh	Mtb growth	RecA intein inh	Mtb bLac sens	Arbovirus anti	others
CC(C)c1cc(C(=O)N/N=C/c2c[nH]c3ccccc23)n[nH]1	nt	-1%	0.8	-11	nt
CCCOc1ccc(CN(CCO)CCO)cc1C(=O)OC	-8	-4%	4.6	-9	15
COC(=O)NCc1ccc(CNC(=O)OC)cc1	-45	0%	0.3	-6	8

Carrying on:
SMILES	YopH inh	Mtb growth	RecA intein inh	Mtb bLac sens	Arbovirus anti	others
CCN=C1SC(CC(=O)Nc2ccc(C(F)(F)F)cc2)C(=O)N1CC (stereo not given)	-33	-5%	-6.3	7	10
Cc1ccc(C)c(N(CC(=O)NN=C2CCCCCCC2)S(C)(=O)=O)c1	-44	-2%	-0.4	-10	5
COc1ccccc1NC(=S)NNC(=O)c1ccc(O)cc1	-21	-12%	-0.9	-12	4
CC(CC(=O)NCCc1ccc(F)cc1)c1ccccc1 (stereo not given)	nt	nt	0.8	-6	nt
CCc1ccccc1NC(=O)Nc1c(C)n(C)n(-c2ccccc2)c1=O	nt	nt	-0.8	-5	nt
COc1ccc(CCn2c(NCc3ccco3)nc3c2c(=O)[nH]c(=O)n3C)cc1	-19	-3%	-2.3	0	0
CCN(CC(=O)NC1CCS(=O)(=O)C1)S(=O)(=O)c1ccccc1Cl (stereo not given)	nt	nt	-1.5	-16	nt
O=C(O)CCC(=O)N1N=C(c2ccc(Br)cc2)CC1c1cccs1 (stereo not given)	nt	-2%	-0.7	-2	9
CC(C)C[C@@H](CO)N1CCN(CC(C)C)CCC1=O	nt	nt	-3.1	-7	nt
CCSc1nc(O)cc(=O)n1-c1ccc(OC)cc1	-29	3%	1.6	-7	0
CCCCN1C(=O)C(=O)NC[C@@H]1CCCCN	nt	-8%	-3.2	3	nt
CCC(Sc1nc2c(c(=O)[nH]1)CCC2)C(=O)Nc1cccc(OC)c1 (stereo not given)	-28	-2%	nt	-3	-1
COc1ccc(CCNC(=O)[C@@H](NC(=O)N2CCn3c2nc2ccccc23)C(C)C)cc1OC	nt	nt	-2.1	4	nt
Cc1ccc(C=C2C(=O)c3ccccc3C2=O)o1	-14	-4%	0.9	-8	-7
Cc1c(-n2cc(C(=O)O)c(=O)c3cc(F)c(N4CCCC(O)C4)c(F)c32)c(=O)n(-c2ccccc2)n1C (stereo not given)	nt	-1%	0.0	5	4
CC(=O)c1cccc(NC(=O)Cn2cnc(S(=O)(=O)N3CCCCC3)c2)c1	nt	nt	-2.5	3	nt
CCN(CC)S(=O)(=O)c1cccc(-c2n[nH]c(=S)n2C(C)COC)c1 (stereo not given)	nt	3%	-0.4	-5	6
Cc1ccc(C(=O)NCCc2nnc3ccc(SCC(=O)Nc4c(C)cc(C)cc4C)nn23)cc1	-28	-1%	-0.1	-8	-6
O=C(CC1CCCC1)NCCS(=O)(=O)N1CCN(c2ccc(F)cc2)CC1	nt	nt	-0.8	-2	nt
CCCCCCCCNC1=CC(=O)CC(C)(C)C1	nt	17%	2.4	3	nt
O=S(=O)(NCC1CC1)c1ccc(F)c(Cl)c1	nt	nt	0.8	-3	nt
Nc1ccc(C(=O)O)c(O)c1	-11&-25	<0.2µM*	0.6&-1.6&0.6	98&99&99	0&-16&2
Cc1c(/C=N/n2cnnc2)c2ccccc2n1C	-33	-2%	0.8	-1	1	Arbovirus anti repeat=7
C=CCNC(=S)N1CCN(c2ccc([N+](=O)[O-])cc2)CC1	-4	7%	1.1	-8	5
Nc1c(C=C2C=CC(=O)C=C2)c(=O)nc2sc(CC(=O)N3CCCC3)nn12	nt	nt	2.9	-2	nt
Cc1ccc(OCc2nnc(SCC(=O)CC(=O)Nc3ccccc3)o2)cc1	-1	-9%	3.0	4	-2
Cc1cccc(NC(=O)c2ccccc2OCC(=O)c2ccc(F)cc2)c1	-32	10%	-1.2	3	6
O=C(O)c1ccc(-c2ccco2)n1Cc1ccccc1	-32	-1%	2.1	-10	9
CCN(CC)S(=O)(=O)c1ccc2[nH]c(=O)cc(C(=O)Nc3ccc(C)c(S(=O)(=O)N(CC)CC)c3)c2c1	-15	72%	4.4	75	-4
CN1C(=O)c2cccc(NCCCCCCN3C(=O)c4ccccc4C3=O)c2C1=O	1	8%	-7.4	-5	0
COc1ccc(C(CNC(=O)COc2ccccc2OC)N(C)C)cc1OC (stereo not given)	18	-1%	-0.5	-8	2
COc1ccc(N(CC(=O)Nc2nc3ccc(C)cc3s2)S(=O)(=O)c2c(C)nn(C)c2C)cc1	-10	44%	9.2	-7	-6	Arbovirus anti repeat=-17
O=S(=O)(NCCC1CC1(Cl)Cl)c1ccc(Cl)cc1 (stereo not given)	nt	2%	3.4	-1	nt
O=C1Nc2cc(Cl)c(Cl)cc2N(O)N1c1ccc(Cl)cc1	-188	-6%	-1.5	7	8
CCOc1ccc(N2C(=O)C3ON(c4ccccc4)C(c4cccs4)C3C2=O)cc1 (stereo not given)	nt	-4%	-1.0	-6	1
